Env fusion inh = inhibitors of HIV-1 Env-driven cell-cell fusion, primary screen, HeLa-JRFL effector, CEM21 target cells, luciferase | inhibition, % at 12.3 µM | actives 1.1% (n = 360,000);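 active = mean replicate inhibition score of at least 50 and every replicate individually at or above 50; inconclusive = only one of the two criteria met; inactive = mean below 50 and not all replicates reaching 50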;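 note: 0% = plate neutral controls and 100% = maraviroc near 300 nM; one replicate is shown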
CSC inhib = cancer stem cell viability inhibitors, primary screen, luminescence | inhibition, % at 7.5 µM | cancer stem cell-like cells viability | actives 1.1% (n = 300,000);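 active = mean at 75% or more and at least half the replicates too; inconclusive = mean and replicates disagree; tested in HMLE shEcad cells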;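 note: 0% = median of negative and 100% = median of positive control wells; the first replicate is given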
PABP polyA inh = PABP poly(A) RNA binding inhibitors, primary screen, biochemical, fluorescence polarization, uHTS. inhibition, % at 35 µM. AID 2014, 2009. actives 1% (n = 290,000);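 active = 50% or more with normal probe brightness, or confirmed in later tests; inconclusive = above 50% with abnormal brightness, or retests that disagree; inactive = below 50% or failed in later tests; about a fifth of its hits are not listed in these tables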;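 note: calls also rest on retests at 20 µM and on dose response follow-up; controls were probe without protein and protein plus probe with vehicle; some compounds called inactive have numbers as strong as hits; many hits fall short of the cut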
Target sequence (P11940 whole entry, looked up): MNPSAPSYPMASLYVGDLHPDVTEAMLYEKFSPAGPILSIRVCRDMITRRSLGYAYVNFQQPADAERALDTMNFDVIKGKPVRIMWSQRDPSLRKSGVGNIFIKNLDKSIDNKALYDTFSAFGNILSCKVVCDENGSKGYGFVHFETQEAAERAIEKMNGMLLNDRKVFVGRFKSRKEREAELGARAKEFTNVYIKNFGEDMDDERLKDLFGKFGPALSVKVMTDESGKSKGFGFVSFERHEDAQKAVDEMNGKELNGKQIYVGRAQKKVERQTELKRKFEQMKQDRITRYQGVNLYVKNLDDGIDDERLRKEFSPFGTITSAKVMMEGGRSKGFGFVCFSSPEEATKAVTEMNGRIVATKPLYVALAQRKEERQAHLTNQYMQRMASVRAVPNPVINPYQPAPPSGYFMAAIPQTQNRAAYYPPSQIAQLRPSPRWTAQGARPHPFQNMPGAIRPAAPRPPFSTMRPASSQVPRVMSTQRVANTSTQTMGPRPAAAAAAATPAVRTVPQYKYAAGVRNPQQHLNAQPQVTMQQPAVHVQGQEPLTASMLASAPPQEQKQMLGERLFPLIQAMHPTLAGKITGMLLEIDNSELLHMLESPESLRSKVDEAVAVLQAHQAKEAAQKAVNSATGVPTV
Yeast UUG start = modulators of yeast start codon fidelity, primary screen, whole organism, S. cerevisiae, single point, plate reader | AID 602363, 2012 | S. cerevisiae UUG-firefly luciferase reporter, luminescence/redox ratio | activity score, % at 18.7 µM | actives 0.13% (n = 350,000);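 active = replicate mean at a twofold rise or more, about +100% in these data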;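 note: firefly luciferase made from a UUG start codon reports start codon fidelity; reporter light over untreated wells divided by growth signal over untreated wells; some hits fall short of that in this replicate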
MT1-MMP act inh = blockers of MT1-MMP proenzyme processing, primary screen, HT1080 RFP-PRO-GFP cells, GFP/RFP fluorescence; actives 0.061% (n = 360,000); GFP/RFP ratio fluorescence, overnight; percent of plate control window, DMSO zero; AID 651647, 2012; GFP/RFP ratio change, % at 20 µM; Matrix metalloproteinase-14 (Homo sapiens), P50281;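 active = GFP/RFP ratio change of at least 30% with cell ATP level not reduced by more than half and red fluorescence within 50% of control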; note: strong numbers were not always called active
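Material: RFP-PRO-GFP reporter HT1080 cells. Dosing: single-point 20 µM compound, 1% DMSO. Controls: DMSO and RFP-L50D-GFP cell wells. Timing: cells overnight before dosing, compound overnight, 37 °C, 5% CO2. Measure: GFP/RFP fluorescence ratio.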
Rce1 inh = yeast Rce1p protease inhibitors, primary screen, biochemical, fluorescence, cell-free homogeneous. yeast membranes, quenched prenylated peptide cleavage fluorescence. calls only. CAAX prenyl protease 2 (Saccharomyces cerevisiae (strain ATCC 204508 / S288c)), Q03530. AID 2563, 2010. actives 0.27% (n = 290,000);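 active = fall in fluorescence gain of 50% or more versus controls, with final raw signal at or below 3038400; inconclusive = same 50% fall but final raw signal above 3038400; inactive = fall in fluorescence gain under 50%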;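 note: plate controls were neutral control wells for no effect and wells lacking membranes for full effect; tested at 10 µM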
Target sequence (Q03530 whole entry, looked up): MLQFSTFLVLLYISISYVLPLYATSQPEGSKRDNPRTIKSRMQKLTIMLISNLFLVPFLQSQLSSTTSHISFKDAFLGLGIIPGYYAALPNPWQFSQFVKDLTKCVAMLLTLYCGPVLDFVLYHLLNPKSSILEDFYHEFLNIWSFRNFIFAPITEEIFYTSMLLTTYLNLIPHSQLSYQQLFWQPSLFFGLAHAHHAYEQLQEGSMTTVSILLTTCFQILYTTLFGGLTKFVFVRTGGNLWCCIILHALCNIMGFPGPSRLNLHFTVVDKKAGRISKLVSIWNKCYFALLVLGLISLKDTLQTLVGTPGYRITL
eIF4H inh = human eIF4H binding inhibitors, primary screen, translation initiation inhibitor project, biochemical, uHTS, fluorescence polarization | eIF4H fluorescence polarization binding assay | inhibition, % at 35 µM | actives 0.94% (n = 290,000) | AID 2012, 2009;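 active = 50% or more with normal probe brightness, or confirmed in later tests; inconclusive = above 50% with abnormal brightness, or retests that disagree; inactive = below 50% or failed in later tests; about a fifth of its hits are not listed in these tables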;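 note: calls also rest on retests at 20 µM and on dose response follow-up; 0% = protein and probe with vehicle and 100% = probe without protein; strong numbers were not always called active; many hits fall short of the cut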
MT1-MMP act inh RFP = also measured in MT1-MMP act inh; calls as there; RFP signal change, %; measured here: RFP expression control read;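 0 = vehicle wells; hits needed this value within 50% of zero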
The depositor's hits bear a star; i = inactive; ? = inconclusive; . = no result given; & = joins results of further samples. This is a subset; the hit share may differ from the screen's.

SMILES	Env fusion inh	CSC inhib	PABP polyA inh	Yeast UUG start	MT1-MMP act inh	MT1-MMP act inh RFP	Rce1 inh	eIF4H inh
CCN(CC)C(=O)C1CCN(Cc2cn(C)nc2-c2ccc(Oc3ccccc3)cc2)CC1	4	1	-8	.	-10	-7	i	-7
O=C(CC(Cc1ccccc1)C(=O)O)NCCc1ccc2c(c1)OCO2 (centres undefined)	-28	4	-6	-9	5	-1	i	-5
COc1ccc(CCN(C)CCC(=O)Nc2cccc(C)c2)cc1OC	7	3	0	.	1	2	i	1
CCCCc1ccc(NC(=O)c2c(C)noc2C)cc1	-3	3	-3	-15	2	-1	i	-8
O=C1CCCc2c1[nH]c1ccc(CN3CCCCC3)cc21	.	-1	-1	-14	6	7	i	-2
C1CCN(Cc2nnnn2CC2CCCO2)CC1 (centres undefined)	0	-6	16	7	-13	1	i	-8
COc1ccc(C(=O)CSc2ccc3nnc(-c4cccnc4)n3n2)cc1	11	9	-3	.	1	-1	i	8
O=C(CCOc1ccc(F)cc1)Nc1nccs1	-1	16	-19	-17	4	-3	i	-6
CCCC(C(=O)NCc1ccccc1)N(C(=O)Cn1nnc(-c2cccs2)n1)c1ccc2c(c1)OCCO2 (centres undefined)	-124	-5	-2	-22	-5	-6	.	-6
C=CCn1c(SCC(N)=O)nnc1-c1cc2c(s1)CCC(CC)C2 (centres undefined)	2	-7	-18	.	1	4	i	-8
COc1cc2c(cc1NC(=S)Nc1ccccc1C)oc1ccccc12	.	-11	6	-7	9	-2	i	-2
COc1ccc(Cc2nnc(SCC(=O)N3CCCCC3)o2)cc1	4	2	-7	.	3	7	i	-10
CCOc1ccccc1NC(=O)C1CCCN(S(=O)(=O)c2ccc(-n3cnnn3)cc2)C1 (centres undefined)	1	-7	10	-18	0	0	i	-5
O=C(NCc1ccccn1)C(=O)Nc1ccccc1	-7	-12	3	-14	-12	-9	i	-7
CN(C)C(CNC(=O)c1cccc(S(=O)(=O)Nc2ccccc2Cl)c1)c1ccco1 (centres undefined)	-12	.	.	-15	2	3	.	.
O=[N+]([O-])c1ccc(S(=O)(=O)N2CCN(Cc3ccco3)CC2)cc1	5	-5	17	-3	-1	2	i	-2
CC(/C=N/NC(=O)COc1ccccc1C)=N\NC(=O)COc1ccccc1C	2	2	-8	-1	2	4	i	-11
CCOC(=O)Cn1nnnc1CN1CCN(c2ccc(OC)cc2)CC1	16	9	-6	.	4	2	i	-5
CC1(C(=O)NS(=O)(=O)c2ccc(F)cc2F)CCN1C(=O)c1ccco1 (centres undefined)	-4	.	.	-11	2	5	.	.
Cc1cc(C)nc(/N=C(\N)Nc2ccc3c(c2)OCCO3)n1	-8	17	-3	.	-1	1	i	4
Cc1ccccc1C(=O)OC(C)C(=O)NCc1ccc2c(c1)OCO2 (centres undefined)	-24	3	.	.	2	1	.	.
CN(CC(=O)O)S(=O)(=O)c1ccc2[nH]c(=O)c(=O)[nH]c2c1	4	0	-5	.	2	1	i	-15
Cc1nc(SCC(=O)c2cc3ccccc3oc2=O)c(C#N)c(C)c1C(=O)Nc1ccccc1	6	.	-6	.	.	.	.	6
Cc1cc2cc(CCNC(=O)C3c4ccccc4Oc4ccccc43)c(=O)[nH]c2cc1C	.	-6	-3	.	.	.	i	-1
CC(=O)Nc1ccc(NC(=O)COC(=O)c2n[nH]c3ccccc23)cc1	-11	-2	-2	.	3	2	i	-1

Part of the list above in order of heavy-atom count, largest number first:
SMILES	Env fusion inh	CSC inhib	PABP polyA inh	Yeast UUG start	MT1-MMP act inh	MT1-MMP act inh RFP	Rce1 inh	eIF4H inh
CCCC(C(=O)NCc1ccccc1)N(C(=O)Cn1nnc(-c2cccs2)n1)c1ccc2c(c1)OCCO2 (centres undefined)	-124	-5	-2	-22	-5	-6	.	-6
Cc1nc(SCC(=O)c2cc3ccccc3oc2=O)c(C#N)c(C)c1C(=O)Nc1ccccc1	6	.	-6	.	.	.	.	6
COc1cc2c(cc1NC(=S)Nc1ccccc1C)oc1ccccc12	.	-11	6	-7	9	-2	i	-2

Continued:
SMILES	Env fusion inh	CSC inhib	PABP polyA inh	Yeast UUG start	MT1-MMP act inh	MT1-MMP act inh RFP	Rce1 inh	eIF4H inh
CCN(CC)Cc1c(O)c(Cl)cc2c(C)c(C)c(=O)oc12	-15	2	2	-4	4	4	?	-4
CCCc1cc(-c2n[nH]c(=S)n2Cc2ccccc2)cs1	.	-12	-13	.	4	3	i	4
Cc1cc2c(cc1C)N[C@]1(C[C@H]3CCCC(=O)N4CC[C@@H](C1)[C@@H]34)C(=NC(C)(C)CC(C)(C)C)N2	22	.	.	18	0	0	.	.
O=C(/C=C/c1ccc2c(c1)OCO2)NCCSCc1c(Cl)cccc1Cl	.	98*	5	.	4	2	i	6
CC1(C(=O)NCc2ccccc2)CCC(=O)N1CCCn1ccnc1 (centres undefined)	17	.	.	-15	2	4	.	.
COc1ccc2nc(NC(=O)CN3CCN(C)CC3)sc2c1	.	13	15	-12	-1	2	i	-9
Cc1cc(NC(=O)c2cnn3cccnc23)no1	.	3	3	-32	5	1	i	-4
COC(=O)c1ccc(-c2cc(C(=O)O)c3cc4c(cc3n2)OCCO4)cc1	.	-6	-3	.	1	0	i	-1
CCCCNC(=O)c1ccc(NC(C)=O)c(Cl)c1	12	-7	-6	.	3	5	i	0
c1ccc(Cn2nnc3c(N4CCCCCC4)ncnc32)cc1	19	0	-13	2	9	0	i	-6
CC(C)c1ccc(Nc2nc(NCc3ccco3)nc(N3CCOCC3)n2)cc1	.	62	-4	3	-3	-9	i	2
CCOC(=O)C(C)n1cnc2scc(-c3ccc(C)c(C)c3)c2c1=O (centres undefined)	-5	9	-10	-9	-2	0	i	-17
CC1(OC(=O)CCc2ccccc2)C(=O)C=C2C=C(c3ccc(C#N)cc3)N(CCN3CCOCC3)C=C2C1=O (centres undefined)	-20	4	20	-7	-1	6	i	14
CN(C)c1ccc(Sc2ccc3nc(N)nc(N)c3c2)cc1	28	.	.	6	0	-15	.	.
CC(C)[C@@H](NC(=O)OC(C)(C)C)C(=O)NCC1CCC(C(=O)N[C@@H](Cc2ccccc2)C(=O)O)CC1 (some centres undefined)	3	-13	-7	20	1	4	i	-6
CCOc1ccc(-c2cc(C(=O)NCCOC)[nH]n2)c(C)c1	10	.	.	-6	1	3	.	.
O=C1CCCc2ccccc2N1Cc1ccc(F)cc1	-3	-6	-8	.	-2	2	i	-6
COc1ccc(C2(c3ccc(OC)cc3)NC(=O)N(CC(=O)Nc3ccc(C(N)=O)cc3)C2=O)cc1	9	-13	4	3	4	3	i	-10
O=C(COC(=O)CC1CC2CCC1C2)Nc1ccccc1[N+](=O)[O-] (centres undefined)	-6	.	.	-17	2	4	.	.
Cc1cc(C)c2sc(N(CCN(C)C)C(=O)c3cc(Cl)sc3Cl)nc2c1	-25	7	1	.	8	6	i	-4
COc1cc(C)c(C)cc1S(=O)(=O)N1CCN(Cc2ccc3c(c2)OCO3)CC1	.	-10	-4	-14	2	2	i	1
CC1CCCC(NC(=O)COC(=O)c2ccccc2C(=O)N(C)C2CCCCC2)C1C (centres undefined)	22	.	.	2	15	10	.	.
Cc1c(Cl)cnc(NC(=O)COC(=O)C2CC3CCCC(C2)C3=O)c1Cl (centres undefined)	.	-1	.	7	-5	3	.	.
COC(=O)c1c(-c2ccc(OC)cc2)oc2ccc(-c3cc(OC)c(OC)c(OC)c3)cc12	17	100*	.	1	-2	-7	i	.
C=CCn1nc2ccccc2c1OC	-9	-4	.	-15	-2	-1	i	.

Pulled one by one from the entries so far, 4 records:
SMILES	Env fusion inh	CSC inhib	PABP polyA inh	Yeast UUG start	MT1-MMP act inh	MT1-MMP act inh RFP	Rce1 inh	eIF4H inh
CN(C)c1ccc(Sc2ccc3nc(N)nc(N)c3c2)cc1	28	.	.	6	0	-15	.	.
COc1ccc(C2(c3ccc(OC)cc3)NC(=O)N(CC(=O)Nc3ccc(C(N)=O)cc3)C2=O)cc1	9	-13	4	3	4	3	i	-10
c1ccc(Cn2nnc3c(N4CCCCCC4)ncnc32)cc1	19	0	-13	2	9	0	i	-6
Cc1cc2c(cc1C)N[C@]1(C[C@H]3CCCC(=O)N4CC[C@@H](C1)[C@@H]34)C(=NC(C)(C)CC(C)(C)C)N2	22	.	.	18	0	0	.	.

(more compounds)
SMILES	Env fusion inh	CSC inhib	PABP polyA inh	Yeast UUG start	MT1-MMP act inh	MT1-MMP act inh RFP	Rce1 inh	eIF4H inh
NCCCCc1ccc2ccc3cccc4ccc1c2c34	13	.	.	-18	0	4	.	.
Cc1cccc(C#CC2=CC(=O)CC(C)(C)C2)c1	33	.	.	-10	2	5	.	.
COc1ccc(NC(=O)Nc2ccc3c(c2)C(=O)N([C@H](C)CO)C[C@H](C)[C@@H](CN(C)C(=O)Nc2ccc(C(F)(F)F)cc2)O3)cc1	6	.	.	0&-10	9	2	.	.
CC(C)N1CCN(Cc2ccc(C#CC(C)(C)O)cc2)CC1CCO (centres undefined)	3	24	1	.	-2	2	i	1
CCOCCCn1c(=N)c(C(=O)NCc2ccc3c(c2)OCO3)cc2c(=O)n3cccc(C)c3nc21	.	17	-10	6	9	-10	i	2
CCN1CCN(c2c(Cl)cccc2NC(=O)c2ccc(Br)o2)CC1	.	13	4	-6	7	0	i	-6
CCN(c1ccc2c(c1)OCO2)S(=O)(=O)c1cc(Br)cc2c1N(C(C)=O)CC2	.	.	3	.	-8	-5	i	-6
Cc1ccc(S(=O)(=O)N2CCN(C)CC2)cc1C(=O)NC1CCCCC1	22	-7	4	-22	-2	-5	i	-1
O=C1COc2ccc(S(=O)(=O)N3CCN(c4cccc(C(F)(F)F)c4)CC3)cc2N1	-2	11	-3	-21	2	0	i	-7
Cc1onc(-c2ccccc2)c1C(=O)NC(=S)NNC(=O)c1ccc(O)cc1O	24	34	5	.	-2	-12	i	12
CC(=O)NC(Cc1ccc(F)cc1)C(=O)NC1CCN(S(=O)(=O)c2ccccc2)CC1 (centres undefined)	-11	3	1	-9	0	1	i	-1
Cc1ccc(SCC(=O)Nc2nnc(C(C)(C)C)s2)cc1	0	-12	0	-8	7	4	i	2
O=c1[nH]c2ccccc2nc1-c1cccs1	-120	-11	2	-20	1	-2	i	3
COc1ccccc1N1CCN(C(c2ccccc2Cl)c2nnnn2C(C)(C)C)CC1 (centres undefined)	.	-8	-3	10	-20	-35	.	0
CCc1ccc(NC(=O)/C(C#N)=C/c2cn(CC(=O)O)c3ccccc23)cc1	-6	-2	4	.	-8	-8	i	0
COc1cc(OC)cc(C(=O)NC(C(=O)NCCN(C)C)C23CC4CC(CC(C4)C2)C3)c1 (centres undefined)	-3	-10	7	6	-5	-1	i	-7

Part of the list above, reduced to PABP polyA inh and MT1-MMP act inh:
SMILES | PABP polyA inh | MT1-MMP act inh
Cc1cccc(C#CC2=CC(=O)CC(C)(C)C2)c1 | . | 2
Cc1onc(-c2ccccc2)c1C(=O)NC(=S)NNC(=O)c1ccc(O)cc1O | 5 | -2

Compound activity as filed in PubChem.
